# E coli growth: E. coli growth inhibition; hit rate 0.21% among 330,000; Escherichia coli growth, OD600, 23 h; active compounds read low; OD600 absorbance (test concentration not listed);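 active = OD600 absorbance below the run mean of sample wells minus 3.6 SD, in any replicate, cut at about 0.56 in these data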;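 note: stock transfer was 300 nL into about 60 µL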
# T cruzi inh: T. cruzi replication inhibition. T. cruzi beta-gal in NIH3T3, luminescence, 90 h. inhibition, % (test concentration not listed). hit rate 1.4% among 300,000. AID 1885;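 active = mean inhibition across valid replicates above about 55%, limit read from the data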;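 note: signal also drops with host cell toxicity which is not excluded here; 0% = plate median of DMSO wells and 100% = zero luminescence signal; higher percent means less beta-gal luminescence so fewer parasites; stock transfer was 50 nL into about 50 µL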
# UCH37 DUB inh: blocks the human deubiquitinase UCH37. Q9Y5K5. purified proteasome/UCH37, Ub-AMC cleavage fluorescence. inhibition, % (concentration not given with the values). hit rate 0.33% among 330,000. AID 588478;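 active = mean of two replicates above 20%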;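 note: 0% = compound-free wells with enzyme and 100% = wells lacking proteasome; stock transfer was 100 nL into about 20 µL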
# Target sequence (Q9Y5K5 whole entry, looked up): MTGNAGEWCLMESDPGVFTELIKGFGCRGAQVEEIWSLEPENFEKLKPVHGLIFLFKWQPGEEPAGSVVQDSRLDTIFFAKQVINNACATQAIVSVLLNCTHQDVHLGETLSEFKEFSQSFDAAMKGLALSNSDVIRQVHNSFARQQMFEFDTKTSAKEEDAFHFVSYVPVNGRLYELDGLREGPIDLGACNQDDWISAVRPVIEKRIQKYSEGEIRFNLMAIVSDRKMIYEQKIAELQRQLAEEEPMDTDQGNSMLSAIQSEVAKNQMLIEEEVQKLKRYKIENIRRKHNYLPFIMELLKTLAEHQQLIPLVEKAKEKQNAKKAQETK
#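 system = Proteasome-associated human UCH37 deubiquitinase | amount = 0.15 nM proteasome as dispensed | medium = pH 7.4 Tris-HCl (50 mM) with ovalbumin, ATP-MgCl2, DTT | incubation = 30 min preincubation with enzyme, 25 min cleavage at room temperature | detection = AMC fluorescence 355/460 nm | read-out basis = percent inhibition | controls = no-proteasome and no-compound wells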
# The depositor's hits bear a star; i = inactive; . = no result given. A portion of the library; count on the stated rates, not on these rows.
SMILES,E coli growth,T cruzi inh,UCH37 DUB inh
Cc1ccc(C=NNC(=O)C(NC(=O)c2ccccc2)c2n[nH]c(=O)c3ccccc23)cc1 (centres undefined),0.75,.,-0.4
Cc1cc(NN=Cc2ccc(O)cc2O)c2ccccc2n1,0.68,.,-12
O=C(NN=Cc1cn(-c2ccccc2)nc1-c1cc2ccccc2o1)c1ccncc1,0.7,.,-16
COc1ccccc1NC(=O)CC1S/C(=N/N=C(C)C2CCCCC2)NC1=O (centres undefined),0.65,.,-0.6
Cc1cccc(N=Cc2c(O)[nH]c3ccccc23)n1,0.71,.,-96
CC(=NNC(=O)CN1CCN(Cc2ccccc2Cl)CC1)c1cccnc1,0.62,.,4.1
COc1ccccc1C=NNC(=O)C(=O)N1CCN(c2ccccc2OC)CC1,0.65,.,-0.5
S=c1[nH]nc(-c2ccco2)n1N=Cc1c(Cl)cccc1Cl,0.71,.,5.8
O=C(NN=Cc1ccc(O)c2ncccc12)c1cccc(Br)c1,0.69,.,-7.6
CC(C)(C)c1ccc(C=NNC(=S)Nc2cccnc2)cc1,0.72,.,2.4
Cc1cc(O)c2c(c1)C(=O)[C@@]13Oc4c5c(c(O)c6c(O)cc(C)cc46)C(=O)C[C@H](O)[C@H]5[C@@H]1[C@@H](O)CC(=O)C3=C2O,0.7,.,12
Cc1ccc(C=NNc2cccc(C(=O)O)c2)s1,0.68,.,9.3
CC(=NNC(=O)C1CC1(C)c1ccccc1)c1ccco1 (centres undefined),0.69,.,0.0
Fc1cccc(F)c1C=NNC(=S)Nc1cccnc1,0.65,.,2.4
O=C(NN=Cc1cccs1)[C@H]1C[C@@H]1c1ccccc1,0.59,.,4.7
O=C(Cc1ccccc1)NN=Cc1cccs1,0.71,.,-1.1
CC1=NNC(=O)C1CCC(=O)NN=Cc1ccccc1[N+](=O)[O-] (centres undefined),0.7,.,1.3
Cc1ccc(C=NNC(=O)c2ccc(-c3ccccc3)cc2)o1,0.68,.,-16
Cc1ccc(C=NNC(=O)CSc2nc3ccccc3o2)cc1,0.7,.,3.5
CC(=NNC(=O)c1ccoc1C)c1cccc2ccccc12,0.66,.,1.3
O=[N+]([O-])c1ccc(C=NNc2ccc3ccccc3c2)o1,0.68,.,6.9
CC(=NN1C(C)CCCC1C)c1ccccc1O (centres undefined),0.7,.,2.5
CC(CC1(O)C(=O)N(Cc2ccccc2)c2ccccc21)=NO (centres undefined),0.73,.,1.7
CCOc1ccc(C=NNC(=S)NC2CC3CCC2C3)cc1 (centres undefined),0.73,.,6.8
O=C(Cc1ccc(F)cc1)NN=Cc1ccncc1,0.68,.,-27
CC(=NNc1ccc(Cl)cc1)c1cnnc(-c2ccccc2)n1,0.71,.,-0.4
O=[N+]([O-])c1ccccc1NN=C1CC2CC=CC12 (centres undefined),0.7,.,1.7
COc1cc(C=NNC(=O)c2ccccn2)cc2c1OCO2,0.62,.,7.0
Cc1nc(NN=Cc2ccccc2)nc(N(C)c2ccccc2)c1[N+](=O)[O-],0.77,.,6.8
CCC(=NNC(=O)CSc1ncccn1)c1ccc2c(c1)OCCO2,0.65,.,2.4
CC(=NNC(=O)c1c(C)nc2ccccn12)c1cccc([N+](=O)[O-])c1,0.7,.,4.8
CCCc1nc2ccccc2c(=O)n1N=Cc1ccc(O)c(O)c1,0.65,.,1.7
COc1cc(OC)c2cc(C(=O)NN=Cc3cccc(OC)c3O)[nH]c2c1,0.75,.,-4.5
CC(C)(C)NC(=O)C(c1ccc(-c2ccccc2)cc1)N(C[C@H]1CC[C@@H]([C@@H]2CC[C@H](CO)O2)O1)C(=O)c1ccccc1F (some centres undefined),0.7,.,4.3
Fc1ccccc1C=NNc1nc(N2CCCCC2)nc(N2CCCCC2)n1,0.73,.,7.8
COc1cc([N+](=O)[O-])cc(C=NNC(=O)c2cccnc2)c1O,0.68,.,17
O=[N+]([O-])c1ccccc1NN=Cc1cccc(O)c1O,0.68,.,7.8
CC1CC(=NNC(=S)NC(C)C)CC(C)(C)C1 (centres undefined),0.74,.,2.2
COc1ccc(C=NNC(=O)CN(C)S(=O)(=O)c2ccc(NC(C)=O)cc2)cc1,0.74,.,3.1
CNC(=S)N=CNOCc1ccc(Cl)cc1Cl,0.6,.,2.8
O=C(CSc1nnc(SCc2ccccc2)s1)NN=C/C=C\c1ccco1,0.65,.,0.6
NC(=NOCc1ccc([N+](=O)[O-])cc1)c1ccccn1,0.69,.,3.5
CC(/C=C/c1ccccc1)=NNc1nc(-c2ccccc2)cs1,0.69,.,-3.2
C(=NNc1nc(N2CCOCC2)nc(N2CCOCC2)n1)c1cccnc1,0.72,.,2.8
O=C(NN=Cc1cc(Br)c(Br)o1)c1ccc2c(c1)OCCO2,0.63,.,8.3
C=CCc1ccccc1OCCOc1ccc([N+](=O)[O-])cc1C=NNC(N)=O,0.69,.,-0.3
Cn1cc(C=NNC(N)=S)c2ccccc21,0.66,.,13
CC(=NNc1nnc(-c2ccccc2)c(-c2ccccc2)n1)c1cccc([N+](=O)[O-])c1,0.77,.,6.6
COc1ccc(C=NNC(=O)c2ccc(Cn3cc(Br)c([N+](=O)[O-])n3)o2)c(OC)c1C,0.73,.,6.8
Cc1ccsc1C=NNC(=O)c1ccco1,0.69,.,4.7
COc1cc(C=NNC(=O)NC23CC4CC(CC(C4)C2)C3)ccc1OCC(N)=O,0.65,.,3.6
CC(=NN1CCN(c2ccccc2)CC1)c1cccs1,0.67,.,4.6
COc1cc(C=NNC(=S)Nc2cccnc2)cc(OC)c1OC,0.7,.,4.8
O=C(ON=Cc1ccc(N2CCCCC2)c([N+](=O)[O-])c1)c1cccc(C(F)(F)F)c1,0.74,.,-0.2
O=C(O)COc1ccccc1C=NNc1ccc(S(=O)(=O)Nc2ccc(Cl)cc2)cc1[N+](=O)[O-],0.61,.,17
CCCOc1ccc(C=NNC(=O)c2nnn(-c3nonc3N)c2-c2cccs2)cc1OC,0.66,.,-140
COc1cc(C=Nn2c(COc3ccccc3)n[nH]c2=S)cc(Br)c1O,0.68,.,4.0
CC(=NNC(=O)c1n[nH]c2c1CCC2)c1ccco1,0.65,.,2.6
Cc1nc(NN=Cc2cccc(F)c2)cc(N2CCOCC2)n1,0.66,.,5.0
CCCc1nnc(SCC(=O)O)n1N=Cc1ccc2c(c1)OCO2,0.73,.,6.6

# Going on with the list:
SMILES,E coli growth,T cruzi inh,UCH37 DUB inh
Cc1ccc(C)c(NC(=O)CCC(=O)NN=C2CC(=O)CC(C)(C)C2)c1,0.68,.,1.3
O=C(NN=Cc1cc(Br)ccc1OC(=O)c1ccc(Br)cc1)c1ccncc1,0.7,.,4.0
COC(=O)NN=C(C)c1ccc(Br)cc1,0.76,.,4.3
CCCCCCC1CC(C)(C(C)=NNC(N)=O)OC1=O (centres undefined),0.73,.,0.6
CC(=NNC(=S)Nc1cc(S(=O)(=O)N2CCOCC2)ccc1Cl)c1ccccc1F,0.72,.,2.5
COCC(=O)NN=Cc1ccc(OC/C=C/c2ccccc2)c(OC)c1,0.68,.,-5.7
NC(CCCN1CCCCC1)=NO,0.7,.,0.8
COC(=O)c1nn(-c2ccccc2)c(Sc2ccc(Cl)cc2)c1C=NO,0.72,.,-1.8
CC(=NNc1ccc(Cl)c(C(=O)O)c1)c1ccc(Br)s1,0.69,.,10
COc1cc(C=NNC(=O)c2cc(C)oc2C)cc(OC)c1OC,0.64,.,1.1
ON=Cc1cc(Br)ccc1OCc1cccc(F)c1,0.69,.,3.3
CNC(=S)NN=C(C)c1cccc([N+](=O)[O-])c1,0.69,.,3.5
CCN(CC)c1ccc2cc(C(N)=O)c(=NNC(=O)c3ccncc3)oc2c1,0.66,.,22*
C=CCN1C(=O)C(Cc2ccc(F)cc2)SC1=NN=Cc1cccs1 (centres undefined),0.77,.,1.8
CCN(CC)c1ccc(C=NNC(=O)Cc2cccs2)cc1,0.69,.,-178
C=CCNC(=S)NN=Cc1ccccc1OCCOc1ccccc1,0.72,.,-0.5
Cc1occc1C(=O)NN=Cc1ccccc1[N+](=O)[O-],0.69,.,6.5
CN(C)c1ccc(C=NNC(=O)Cn2nnc3ccccc32)cc1,0.72,.,-109
Cc1ccc(NC(=O)CC2SC(=Nc3nccs3)N(C)C2=O)cc1C (centres undefined),0.69,.,1.8
Cc1cccc(NC(=S)NN=Cc2ccc(Cl)c([N+](=O)[O-])c2)c1,0.71,.,6.4
CC(=O)C(=NNc1ccc(C)cc1)Sc1nnc(CCc2ccccc2)n1-c1ccccc1,0.68,.,-1.8
O=[N+]([O-])c1ccc(O)c(C=NNc2ccccn2)c1,0.71,.,8.5
C(=Nn1cnnc1)c1ccccn1,0.71,.,0.9
CCn1ncc(C=NNC(=O)COc2cc(C)cc(C)c2)c1C,0.7,.,-0.4
O=C(NN=Cc1ccco1)c1cc(Br)ccc1OCc1ccccc1,0.71,.,3.1
Cc1ccccc1C=NNc1ccnc2cc(Cl)ccc12,0.59,.,-10
Cc1ccc([N+](=O)[O-])cc1N=Nc1c(-c2ccc([N+](=O)[O-])cc2)[nH]n(C(N)=S)c1=O,0.69,31,12
CC(=O)N1CC2(CC(=O)OC(C)C)CN(C(C)=O)CC(CC(=O)OC(C)C)(C1)C2=O,0.75,-19,-2.7
CCOC(=O)N1CCN(C(=O)CC(C(=O)N2CCc3ccccc32)n2ccnc2)CC1 (centres undefined),0.68,63*,1.0
CCN(c1ccccc1)S(=O)(=O)c1ccc(NC(=O)C(C)(C)C)cc1,0.72,3,3.0
O=C(Nc1ccc2c(c1)OCO2)C1CCN(C(=O)c2cccs2)CC1,0.7,-4,2.0
O=C(c1ccco1)N1CCN(C(=O)c2ccccc2OC(=O)C23CC4CC(CC(C4)C2)C3)CC1,0.77,13,-2.2
O=Cc1ccc(O)c2ncccc12,0.093*,57*,i
Cc1ccc(-c2cn(S(=O)(=O)c3ccc(C)cc3)nc2N)cc1,0.73,-12,1.8
O=C(NCc1ccco1)c1cc(S(=O)(=O)N2CCOCC2)c(Cl)cc1Cl,0.69,-6,1.1
O=C(CSc1nc(-c2ccncc2)nn1CC(=O)N1CCCCC1)NC1CCCC1,0.72,3,1.5
COC(=O)c1c(NC(=O)c2ccccc2N(C)S(=O)(=O)c2ccccc2)sc2c1CCCC2,0.73,16,-3.4
COc1ccc(S(=O)(=O)N2CCN(c3nc4ccccc4nc3-n3nc(C)cc3C)CC2)cc1,0.66,1,-7.7
Cc1cc2cc(CN(Cc3cccs3)C(c3nnnn3C(C)(C)C)C(C)C)c3nnnn3c2cc1C (centres undefined),0.76,10,-3.3
Cc1ccc(S(=O)(=O)N2CCOCC2)cc1C(=O)OCC(=O)N1CCc2ccccc2C1,0.76,4,0.7
CCN1CCN(C(c2ccc(OC)c(OC)c2)c2nnnn2C(C)(C)C)CC1 (centres undefined),0.76,-8,5.8
O=C(NC1c2ccccc2-c2ccccc21)N1CCCCC1,0.65,-5,3.6
O=C(Nc1ccc(N2CCOCC2)cc1)c1cccc(S(=O)(=O)N2CCCCC2)c1,0.68,-12,0.4
Cc1ccc(NC(=O)N2CCCC2C(=O)NCCc2ccccc2)cc1 (centres undefined),0.69,-14,0.8
CC(C)CC(c1nnnn1CC1CCCO1)N1CCN(c2nc3ccccc3s2)CC1 (centres undefined),0.72,12,0.7
CCCn1c(N)c(Sc2ccccc2)c(=O)n(CCC)c1=O,0.66,6,5.0
CC1CN(c2ccc(Oc3ccccc3)cc2)c2nc3c(c(=O)[nH]c(=O)n3C)n2C1 (centres undefined),0.74,-4,2.2
O=C(c1ccc(S(=O)(=O)N2CCCCC2)cc1)N1CCN(Cc2ccc3c(c2)OCO3)CC1,0.75,8,-1.5
CCn1cc(C=C2C(=O)c3ccccc3C2=O)c2ccccc21,0.68,-9,5.4
Cc1cc(NC(=O)CSc2nc3c([nH]c4ccccc43)c(=O)n2-c2cccc(C(F)(F)F)c2)no1,0.71,24,2.9
COc1ccc(NC(=O)CSc2nnc(-c3cccnc3)n2Cc2ccco2)c(OC)c1,0.7,-2,-4.5
